Mtb hypoxia rep = PubChem AID 1159583 | M. tuberculosis hypoxia-regulated fluorescent reporter, fluorescence | fluorescence inhibition, % (no concentration beside the values) | 0.1% of 300,000 active;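 active = 35 to 45% if threefold the growth effect, above 45% if 1.5-fold the growth effect; inactive = the rest, general growth blockers included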;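 note: wells of about 50 µL received 100 nL stock; 0% = vehicle wells and 100% = reference inhibitor wells; whole bacteria with a GFP reporter of the hypoxia response; strong numbers were not always called active; many hits fall short of the cut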
Sa ugtP lethal = growth inhibition of ugtP-null S. aureus, primary screen, RN4220 ugtP deletion, OD600; 0.54% of 330,000 active; AID 1259309, 2017; 16 h; some inactives read as strong as hits; growth inhibition, % (concentration not given with the values);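 active = z-score under -3 and OD600 up to 0.15 on both plates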;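 note: plate controls were untreated wells for no effect and antibiotic for full effect; wells of about 80 µL received 100 nL stock; the first replicate is given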
PrP UTR inh = inhibition of PrP 5' UTR reporter expression; cell-based PrP 5' UTR mRNA reporter, plate reader; inhibition, % (test concentration not listed); 0.35% of 340,000 active; AID 488862, 2010;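 active = every replicate at 50% or more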;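 note: 0 = median of the neutral control wells; tested in H4 reporter cells; numbers are from one replicate; inactives centre near -14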
BJeLR lethal = MLPCN primary cell-based screen for lethality selective to Ras in HRASV12 cells; AID 1554, 2009; 0.17% of 300,000 active; BJeLR (HRASV12) viability, CellTiter-Glo ATP luminescence, 48 h; reference of the scale not given here; inhibition, % (no concentration beside the values);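 active = replicate mean above 50%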;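 note: 50 nL library stock added to about 25 µL; numbers are from one replicate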
RN4220 kill = growth inhibition of S. aureus RN4220, primary screen, OD600; 16 h; inhibition, % (concentration not given with the values); 0.33% of 330,000 active; AID 1259311, 2017;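 active = z-score of -3 or lower and OD600 up to 0.18 on both plates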;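 note: plate controls were untreated cells for no effect and reference antibiotic for full effect; stock transfer was 100 nL into about 80 µL; one replicate is shown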
Autofluor counter = flagged as autofluorescent in microsphere protease counterscreen; fluorescence intensity (no concentration beside the values); AID 624483; compound autofluorescence counterscreen, microsphere flow cytometry; active compounds read high; 3.1% of 360,000 active;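 active = at least 3 SD above the mean of all compounds, about 16000 in these data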;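 note: 100 nL of 1 mM stock went into each well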
Mtb hypoxia rep growth = further read-out of Mtb hypoxia rep, marked with its call; growth inhibition, %; measured here: M. tuberculosis growth (absorbance);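 0% = vehicle and 100% = reference antibiotic; read after six days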
Starred values were filed as active, the others as inactive; nt = not tested or not shown.

The line under a structure holds: Mtb hypoxia rep	Mtb hypoxia rep growth	Sa ugtP lethal	PrP UTR inh	BJeLR lethal	RN4220 kill	Autofluor counter
Cc1ccc(C2Nc3ccc4ccccc4c3C3=C2C(=O)CC(C)(C)C3)o1 (configuration not stated)
  5	8	-7	-12	-3	-5.8	21585*
CC(=NNc1cc(N2CCOCC2)ncn1)c1ccc(O)cc1
  4	0	11	nt	nt	4.1	nt
O/N=C(/c1ccc(F)cc1)C1CC1c1c(F)cccc1Cl (configuration not stated)
  nt	nt	nt	-35	2	nt	3507
CC(=O)Nc1ccc(C(=O)Nc2ccc(S(=O)(=O)N3CCCCC3)cc2)cc1
  10	11	5	-33	-5	0.1	3835
Cc1cc(C)c(C)c(S(=O)(=O)Nc2ccc(OCC(=O)O)cc2)c1C
  nt	nt	-2	19	-13	1.1	4405
Fc1cccc(Cl)c1Cn1nnc2c(-n3ccnc3)ncnc21
  nt	nt	0	-12	0	1.4	4990
Cn1c(=O)cc(SCC(=O)N2CCN(c3ccccn3)CC2)c2ccccc21
  17	3	0	-61	-8	3.0	4232
O=C1CN(C(=O)COC(=O)c2ccccc2NCc2ccco2)c2ccccc2N1
  13	12	14	-9	-1	16	2356
O=C(COC(=O)c1ccc[n+]([O-])c1)Nc1c(Br)cc([N+](=O)[O-])cc1Br
  8	2	2	nt	3	1.8	nt
CCN(CC)CCC#CC(O)(c1ccccc1)C1CCCCC1 (configuration not stated)
  5	6	4	-6	7	1.0	4751
Cn1cc(S(=O)(=O)NCc2ccco2)c(=O)n(C)c1=O
  -12	-9	-1	-24	-4	1.6	6452
CC(NC(=O)c1cc(S(=O)(=O)N(C)C)ccc1Cl)C1CC2CCC1C2 (configuration not stated)
  -5	-3	2	11	7	3.4	3692
O=S(=O)(c1ccc(-c2n[nH]c(=S)o2)cc1)N1CCCC1
  19	1	10	-16	-1	55	6421
COc1ccc(CN2C(=O)NC(=O)/C(=C/c3ccc(OC)c(OC)c3OC)C2=O)cc1
  nt	nt	nt	-78	-8	nt	4537
CCOC(=O)C1(CC)NC(c2ccc(N(C)C)cc2)C2C(=O)N(C)C(=O)C21 (configuration not stated)
  -7	14	-1	-8	0	4.6	4085
O=C(Cc1ccc(-n2c(=O)c3sccc3n(CC(=O)Nc3ccccc3F)c2=O)cc1)NCc1ccco1
  2	10	9	-26	5	3.4	4150
CC(C)c1nc(CNC(=O)C2CCC(=O)N(CCc3ccc(Cl)cc3)C2)no1 (configuration not stated)
  10	7	8	-9	2	4.5	6084
CC(C)C(=O)NC(NC1CCS(=O)(=O)C1)C(Cl)(Cl)Cl (configuration not stated)
  1	5	3	14	nt	6.5	4553
C/C(C=NNC(=O)c1sc(N)nc1C)=C\c1ccccc1
  -3	-10	3	nt	nt	1.6	nt
O=S1(=O)N=C(N2CCCc3ccccc32)c2ccccc21
  6	7	0	1	-10	3.8	3063
O=C(NC1CC1)c1sccc1-n1cccc1
  17	7	1	0	-1	2.1	3925
CC(C)CNC(=O)CC(=O)NN=Cc1ccc(Br)cc1
  16	6	2	nt	nt	1.2	nt
Cc1ccccc1C(=O)NC(=S)Nc1ccc(S(=O)(=O)N2CCOCC2)cc1
  1	8	5	-18	-5	7.5	2116
COCCn1c(SCC#N)nnc1-c1ccc(OC)cc1
  10	6	13	-3	-2	5.2	8837
CCCC(=O)N1CC2(CCC)CN(C(=O)CCC)CC(CCC)(C1)C2=O
  nt	nt	-2	-14	2	6.5	2936
COc1ccc(CN2CCN(C(=O)c3c(-c4ccccc4)noc3C)CC2)cc1F
  5	3	7	-16	nt	2.6	6228
CC(=O)N1CCCc2cc(S(=O)(=O)NCCC3=CCCCC3)ccc21
  nt	nt	10	-16	3	11	4198
CC(C)n1cnc2c(Nc3cccc(Cl)c3)nc(N(CCO)CCCO)nc21
  nt	nt	nt	10	6	nt	3917
O=C(COC(=O)COc1ccc(Br)cc1)NC1CCCCCC1
  2	0	1	-24	nt	4.8	7867
O=C1C2C3C=CC(CNS(=O)(=O)c4ccccc4)(O3)C2C(=O)N1c1ccc(Cl)cc1 (configuration not stated)
  4	2	4	3	-2	11	2548
O=c1cnc2ccccc2n1Cc1ccccc1C(F)(F)F
  2	8	8	-9	-5	3.1	5494
O=C(N/N=C\c1ccc([N+](=O)[O-])o1)c1cncc(Br)c1
  nt	nt	nt	-14	-7	nt	3791
CC1C(C#N)=C(N)OC2=C1C(=O)CCC2 (configuration not stated)
  nt	nt	8	-21	-4	-0.4	2493
CCOC(=O)C1=C(C)N(C[C@@H]2CC[C@@H](Cc3ccc(-c4ccccc4)cc3)O2)C(=O)NC1C1CC1 (some centres not stated)
  -2	2	-1	-16	nt	6.7	3905
O=C(O)c1cc2c(ccc3ccccc32)oc1=O
  2	2	-5	-3	1	0.0	5178
O=C(CCCCCn1nnc2ccccc2c1=O)Nc1ccccc1Cl
  13	10	8	-14	2	3.2	3723
Cc1ccc(-n2[nH]c(C)c(/C=N/Nc3ccc([N+](=O)[O-])cc3[N+](=O)[O-])c2=O)cc1C
  nt	nt	nt	-20	27	nt	1837
N#CCCn1c(=O)n(CCC#N)c2ccccc21
  -8	-6	17	-30	nt	7.6	4736
CCCCNC(=O)CC(=O)Nc1ccccc1C(=O)O
  nt	nt	4	-7	-1	1.8	4123
C=C(C)COc1ccc2oc(C)c(C(=O)OCCOC)c2c1
  5	11	19	-17	1	0.6	24480*
CC12CC3CC(C)(C1)CC(C(=O)Nc1nn[nH]n1)(C3)C2
  4	2	3	0	7	3.1	19766*
COc1ccc(OC)c(S(=O)(=O)NCCO)c1
  nt	nt	3	7	-4	-1.8	3523
CCc1ccc(NC(=O)CSc2nc3ccsc3c(=O)n2CCC(=O)O)cc1
  5	-6	1	-11	-10	1.2	5318
O=c1c2cc(F)ccc2[nH]c(=S)n1Cc1ccc(F)cc1
  4	0	-22	-7	-3	-3.8	4020
Cc1ccc2nc(C)c3c(c2c1)N(c1ccccc1)CC3
  8	19	-7	-9	8	-0.3	nt
COC(=O)c1sccc1NC(=O)CSc1nnnn1-c1ccccc1F
  nt	nt	-2	-23	8	6.6	2886
O=C(O)c1csc(Cc2ccccc2)n1
  5	-6	-5	-39	-3	5.6	4256
CC(=O)Nc1ccc(CC#N)cc1
  6	-5	7	-11	-11	2.4	6285
O=C(Nc1cccc2c1CCCC2)c1ccccc1Cl
  9	0	-2	-22	-7	3.4	3265
O=C(Nc1cccc2cccnc12)c1cccnc1
  2	6	-4	-54	-5	1.5	18275*
Cc1ccc(N=Nc2c(C)[nH]n(C(N)=S)c2=O)cc1C
  -5	1	0	-134	-2	0.6	2082
O=S(=O)(Nc1ccc(O)c(Sc2nc3ccccc3s2)c1)c1ccc(Cl)cc1
  nt	nt	nt	-5	14	nt	2029
O=C1CSC(=S)N1N=Cc1c(F)cccc1F
  13	6	3	nt	nt	12	nt
CCN1CCCC1CN(Cc1cc2ccc(C)cc2[nH]c1=O)C(=S)Nc1cccc(OC)c1 (configuration not stated)
  6	1	2	-10	1	0.9	5006
O=C(CC1S/C(=N\S(=O)(=O)c2ccc(F)cc2)N(c2ccccc2)C1=O)Nc1ccccc1 (configuration not stated)
  nt	nt	nt	-6	-8	nt	10502
CC[N+](CC)(CC)C/C(N)=N/O
  nt	nt	-2	-19	2	0.8	3973
COc1ccc(Cc2nc(-c3cccs3)no2)cc1OC
  5	1	-3	-30	5	7.5	5062
Oc1c(Cl)cc(Cl)cc1C(C#Cc1ccccc1)N1CCOCC1 (configuration not stated)
  1	8	-1	-22	-9	-13	2437
COC(CNC(=O)C(C)n1nc(C)c2ccccc21)OC (configuration not stated)
  17	13	12	-16	nt	0.6	4467
COc1ccc(CCN2C(=O)CCC2(C)C(=O)NC2CCCC2)cc1OC (configuration not stated)
  -1	3	7	-18	-6	2.7	4572

New compounds follow:
The line under a structure holds: Mtb hypoxia rep	Mtb hypoxia rep growth	Sa ugtP lethal	PrP UTR inh	BJeLR lethal	RN4220 kill	Autofluor counter
CC(C)NC(=O)Nc1cccc(Cl)c1
  11	0	0	-29	-11	3.7	4409
CN(Cc1ccccc1)C(=O)c1cnc2n(c1=O)CCS2
  4	5	5	-15	-4	2.1	19652*
CC(=O)OCC1OC(n2ccc(=O)[nH]c2=O)C(O)C1O (configuration not stated)
  -81	-26	11	3	-4	4.1	9468
Cc1ccc(-n2nc3c(c2NC(=O)c2cccs2)CS(=O)(=O)C3)cc1
  8	2	11	-8	2	4.0	4480
COc1ccc(NC(=O)c2ocnc2C)cc1OC
  10	7	9	-17	4	6.3	10985
O=C(CNC(=O)c1ccccc1Br)NN=Cc1cccnc1
  2	1	2	nt	nt	2.2	nt
CC(=O)Nc1ccc(S(=O)(=O)Nc2ccc(Cl)nn2)cc1
  4	7	1	-16	0	1.6	1899
O=C(CSc1nc2ccccc2nc1N1CCCC1)Nc1ccc(Cl)cc1
  1	-4	2	-18	1	5.8	5166
CCN(C(=O)COC(=O)Cc1ccccc1)c1c(N)n(Cc2ccccc2)c(=O)[nH]c1=O
  4	0	5	1	nt	3.0	8106
CC1=CC(=O)C=C(C)C1=NOC(=O)/C=C\c1ccccc1
  nt	nt	nt	-16	-1	nt	2215
Cc1cc(OCc2nnc(SC(C)C(=O)O)n2-c2ccccc2)ccc1Cl (configuration not stated)
  4	8	-4	-14	-13	2.6	3730
CCn1cc(CCC(=O)NCc2ccccc2OC)c2ccccc21
  0	-3	-2	-5	-1	5.7	3166
COc1ccc(C2NCCc3c2[nH]c2ccccc32)cc1COc1ccc(F)cc1 (configuration not stated)
  nt	nt	-26	-4	-4	-0.7	2014
CCCCOc1ccc(Cl)cc1CSc1nnc(C)n1N
  0	8	-3	-5	-16	-0.9	10940
CSc1nc(C)cc(OCC(=O)n2nc(C)cc2C)n1
  6	0	5	-10	7	0.8	23438*
COc1ccc(N(CC(=O)NCCC2=CCCCC2)S(=O)(=O)c2c(C)[nH]c(=O)[nH]c2=O)cc1
  2	-7	11	nt	-3	5.2	3251
CC1CCCC(C)N1C(=O)CCN1C(=O)C2C3C=CC(C3)C2C1=O (configuration not stated)
  7	3	5	-20	7	1.1	5577
O=C(N/C(=C/c1cccnc1)C(=O)N1CCOCC1)c1ccccc1
  nt	nt	nt	-21	-6	nt	2565
CCN(CC)S(=O)(=O)c1ccc(/C=C/C(=O)OCC#N)cc1
  14	5	2	-8	-2	2.1	2489
O=C(/C=C/c1cccs1)N1CCCC1
  nt	nt	0	-12	-9	1.7	5268
